# Screening data deposited in PubChem BioAssay by ICCB-Longwood Screening Facility, Harvard Medical School.
# CapD inh: inhibitors of Bacillus anthracis CapD enzyme | purified CapD enzyme, fluorescence intensity read-out; stronger effect = lower value; some hits fall short of the stated cut | z-score (concentration not given with the values) | AID 492967 | 0.23% of 140,000 active;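 active = z-score under -4 in either of two replicates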;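 note: stock transfer was 100 nL into about 40 µL; score is relative to mean and spread of the plate; one replicate is shown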
# AID504770: growth inhibitors of E. coli YBA685 in a screen for V. cholerae RctB (chromosome II replication) inhibitors. 0.27% of 130,000 active. AID 504770. E. coli YBA685 rctB-dependent plasmid, OD600 growth, 3 h; stronger effect = lower value. z-score (concentration not given with the values);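 active = z-score under -2 on both plates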;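 note: wells of about 30 µL received 100 nL stock; score is relative to mean and SD of the test wells; the first replicate is given; strong numbers were not always called active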
# Active calls of the source: *; x = no result given. These rows are one share of the data; rates above refer to the full screens.
SMILES,CapD inh,AID504770
Cc1c(C#N)c(O)n(CCCO)c(=O)c1N=Nc1c(C)n(C)n(-c2ccccc2)c1=O,0.07,-0.05
COc1ccc(CNC(=O)CCn2c(=S)[nH]c3cc4c(cc3c2=O)OCO4)cc1,0.83,0.05
CC(=O)N1CCC(C(=O)O/N=C(\N)c2ccc(Cl)cc2)CC1,0.32,-1
CCCCC(=O)C1CCC(c2ccc(Cl)cc2)CC1 (centres undefined),-0.11,-0.9
O=C(COCc1cc(-c2ccco2)on1)NCCc1ccccc1,0.26,-0.2
O=C(CCN1C(=O)COc2ccccc21)NCCCN1CCN(c2ccc(F)cc2)CC1,-0.55,-0.65
Cc1cc2c(C)nc3ccc(C(=O)O)cc3c2o1,x,-1.4
O=S(CCSc1nc2ccccc2s1)Cc1ccccc1 (centres undefined),0.28,0
CCc1cc(Br)ccc1NC(C)=O,-0.34,-2.7*
CC(=O)N1N=C(c2ccco2)OC1c1ccc(-c2ccccc2)cc1 (centres undefined),-1.4,0.8
O=C(OCn1nnc2ccccc2c1=O)C1CC(=O)N(Cc2ccco2)C1 (centres undefined),x,1.8
N=c1n(CCO)c2ccccc2n1CCOc1ccc(Cl)cc1Cl,1.5,0.95

# By substructure, those above containing nitrogen in an aromatic ring
SMILES,CapD inh,AID504770
Cc1c(C#N)c(O)n(CCCO)c(=O)c1N=Nc1c(C)n(C)n(-c2ccccc2)c1=O,0.07,-0.05
COc1ccc(CNC(=O)CCn2c(=S)[nH]c3cc4c(cc3c2=O)OCO4)cc1,0.83,0.05
O=C(COCc1cc(-c2ccco2)on1)NCCc1ccccc1,0.26,-0.2
Cc1cc2c(C)nc3ccc(C(=O)O)cc3c2o1,x,-1.4
O=S(CCSc1nc2ccccc2s1)Cc1ccccc1 (centres undefined),0.28,0
O=C(OCn1nnc2ccccc2c1=O)C1CC(=O)N(Cc2ccco2)C1 (centres undefined),x,1.8
N=c1n(CCO)c2ccccc2n1CCOc1ccc(Cl)cc1Cl,1.5,0.95

# The listing continues.
SMILES,CapD inh,AID504770
Cc1ccc(S(=O)(=O)N2c3cccc4cccc(c34)S2(=O)=O)cc1C,x,0.15
CCOC(=O)c1c(NC(=O)CSc2nnc(CNC(=O)c3cccs3)n2C2CCCCC2)sc2c1CCC2,-0.44,x
CN(Cc1ccccc1)C(=O)c1cccn2c(=O)c3c4c(sc3nc12)CCCC4,13,-0.35
CCOC(=O)C1=C(C)NC(=O)CC1c1ccc(Cl)cc1Cl (centres undefined),0.48,x
CC1Oc2ccccc2N(CC(=O)NC2CCCC2)C1=O (centres undefined),x,0.55
CCN1CN=C(SCc2ccccc2Cl)NC1,-0.71,x
O=C(N/N=C/c1c[nH]c2ccccc12)c1ccc([N+](=O)[O-])cc1Cl,-0.78,x
COC(=O)c1cc(/C=C/c2ccccc2)on1,0.56,2.2
CCc1nc2ccccc2c2c1C(=O)N(CCN1CCCC1)C2=O,-0.03,x
Cc1cc(C)nc(NC2=NCCN2C(=O)Nc2ccc(Cl)c(Cl)c2)n1,0.41,-0.65
O=C(O)C1C2C=CC(C2)C1C(=O)N1CCCN(c2ncc(C(F)(F)F)cc2Cl)CC1 (centres undefined),0.65,x
O=c1cccc2n1CC1CC2CN(c2nc(N3CCCCC3)nc(N3CCCCC3)n2)C1 (centres undefined),x,-2.7*
O=C(CCS(=O)(=O)Cc1ccccc1)N1CCN(C(=O)c2ccco2)CC1,0.2,-0.6
CC(=O)n1c(/C=C2\C=c3cccc(C)c3=NC2=O)c(O)[nH]c1=S,67,0.85
CCCCn1nnnc1CSc1nc2cc(Cl)ccc2n1Cc1ccccc1,x,0.65
CCCCC(=O)NC(c1cccs1)c1cc(Cl)c2cccnc2c1O (centres undefined),-0.52,-0.9
CC1(C)CC(=O)C(C2=NC(C)(C)Cc3ccccc32)=C(O)C1,-0.39,x
Cc1cc(C)nc(Sc2ccc(NC(=O)c3ccc(OC(F)(F)F)cc3)cc2)n1,-0.26,x
CC(C)n1c(SCC(=O)C(C)(C)C)nc2cc(C(F)(F)F)ccc21,8.7,-0.15
O=C(Nc1cnn(Cc2ccc(F)cc2)c1)c1cc(-c2ccc(Br)cc2)on1,0.8,0.1
C/C(=N/N=C1/NC(=O)CC(C(=O)O)S1)c1ccccc1 (centres undefined),x,-0.9
Cc1cc(NC(=O)CCC(=O)N(c2ccc(F)cc2)C2(C(=O)NC3CCCCC3)CCCC2)no1,x,0.95
O=C1c2ccccc2C(=O)N1CCSc1nnc(Cc2cccs2)n1CCc1ccccc1,x,-0.6
CC1=C(C#N)C(c2ccc(O)cc2)C2=C(CCCC2=O)N1 (centres undefined),26,0.7
O=C(COc1ccc2ccc(=O)oc2c1)NC1CCCC1,111,-0.05
COc1ccc2cc(C(=O)c3ccc(Cl)c(C)c3)oc2c1,-0.03,0.7
COc1ccc(Br)cc1-c1nc(COC(=O)c2ccc(C)o2)cs1,x,-0.15
COc1cc(S(=O)(=O)n2cnc3cc(C)c(C)cc32)ccc1Cl,x,-0.4
O=C(Oc1ccccc1)ON1C(=O)C2C3C=CC(O3)C2C1=O (centres undefined),0.33,x
N#CCSc1ccc2ccccc2c1,0.53,x
COc1ccc(/C=N/NC(=O)c2ccccc2)cc1OC,-0.58,0.85
CCN(CC(=O)NCc1cccs1)C(=O)c1ccc(S(=O)(=O)N2CCOCC2)cc1,x,1.4
Cc1cc(=O)n(CNC(=O)c2ccco2)cn1,-0.67,-0.1
Cc1ccc2c(CC(=O)N3CCSC3=Nc3ccccc3C)coc2c1,x,-0.15
CSc1nc(N)nc(C2CC2)n1,0.17,x
CC1CC(C)CN(C(=O)C(C)n2sc3ccccc3c2=O)C1 (centres undefined),-1.2,-0.1

# Compounds from the list above containing bromine:
SMILES,CapD inh,AID504770
CCc1cc(Br)ccc1NC(C)=O,-0.34,-2.7*
O=C(Nc1cnn(Cc2ccc(F)cc2)c1)c1cc(-c2ccc(Br)cc2)on1,0.8,0.1
COc1ccc(Br)cc1-c1nc(COC(=O)c2ccc(C)o2)cs1,x,-0.15

# (listing goes on)
SMILES,CapD inh,AID504770
CC(C)(CNC(=O)c1cc(Cl)c(O)c(Cl)c1)N1CCOCC1,x,-1
O=c1oc2ccc(Br)cc2cc1-c1nnc(-c2ccncc2)o1,0.82,0.7
Cc1ccc(C)c(Nc2nc3nonc3nc2Nc2cc(C)ccc2C)c1,-1.2,x
Cc1ccc(NC(=O)Cn2cnc3sc(C(=O)Nc4nc5ccccc5s4)c(C)c3c2=O)cc1Cl,-0.02,x
C=CCN1C(=O)c2oc3ccccc3c(=O)c2C1c1ccc(OC)cc1 (centres undefined),0.72,-2.2
C=CCc1cccc(CNc2ccc(Cl)cc2)c1O,-0.09,0.4
Cc1csc2c(N3CCN(C(=O)NC(C)(C)C)CC3)ncnc12,-0.52,-1.1
COc1ccc(/C=C/C(=O)Nc2ccc(Cl)cn2)cc1OC,7.7,0.15
O=C(NCCN1CCN(C(=O)c2ccccc2F)CC1)C(=O)Nc1ccc(F)cc1,0.29,x
O=C(c1ccc(Cl)cc1)c1ncc(C(F)(F)F)cc1N1CCCCCC1,-0.18,x
O=C(c1cc2cc(Br)ccc2oc1=O)N1CCSC1c1cccc([N+](=O)[O-])c1 (centres undefined),0.3,x
O=C(CSc1nc2[nH]ncc2c(=O)n1-c1ccccc1Br)NCc1ccccc1Cl,-0.18,x
CC(C)N1CCc2c(sc(N)c2C(N)=O)C1,0.03,-0.8
CCN(CC)S(=O)(=O)c1ccc(C(=O)Nc2nc(-c3ccccc3)cs2)cc1,5,-0.85
N#CC1=C(N)n2c(s/c(=C\c3cccc(F)c3)c2=O)=C(C#N)C1c1cccc(F)c1 (centres undefined),-0.71,x
O=C(Nc1c2c(nn1-c1ccccc1)CS(=O)C2)c1ccccc1 (centres undefined),x,0.15
CCC1C(=O)C2=C(CC(C)(C)CC2=O)N(c2ccc(OC)cc2)C1c1ccccc1 (centres undefined),-0.83,-0.9
CCn1c(C(=O)NCCCc2ccccc2)cc2oc3ccccc3c21,6.8,1.1
CCN1C(=O)CC(C(=O)Nc2ccc(Br)cc2)SC1=Nc1ccc(F)cc1 (centres undefined),0,x
Cc1noc(N)c1C(=O)OCc1ccc(COC(=O)c2c(C)noc2N)cc1,x,1
O=C(COC(=O)c1cccnc1Cl)NCc1ccc(Cl)cc1,-0.58,-0.3
COc1ccccc1C(=O)Nc1cc(C)c(OCC(=O)N2CCOCC2)c(C)c1,-0.02,0.4
Cc1ccc2c(c1)CCCN2S(=O)(=O)c1c(C)c(C)c(C)c(C)c1C,-0.33,x
CCCCCCC1CC=C(C(=O)O)CC1 (centres undefined),x,-0.7
Clc1ccc(Oc2nc3ccccc3cc2-c2ccc(Cl)cc2)cc1,4.4,x
COc1cccc(-n2ccnc2SCC(=O)Nc2nccs2)c1,-0.53,-0.75
CSc1nnc(C)c(/C=C/Nc2cc(C(F)(F)F)cc(C(F)(F)F)c2)n1,-0.09,x
c1ccc2c(NC3CCCCC3)nc(-c3ccncc3)nc2c1,2.2,-0.25
c1ccc2c(c1)n1cnnc1c1nncn21,x,-0.05
COc1ccc(CCN2C(=O)CC(N3CCN(C)CC3)C2=O)cc1OC (centres undefined),x,0.45
Cc1nnc(SCC(=O)O)n1/N=C/c1ccccc1,0.53,0.5
O=C(NCc1ccco1)c1cc2nc(-c3ccc(Cl)c(Cl)c3)cc(C(F)(F)F)n2n1,1,x
O=c1[nH]c2ccccc2c2cn(-c3ccccc3)nc12,x,2
N#Cc1cnc(SCc2ccc(Cl)cc2)nc1N,1.5,-1.1
N#Cc1sc(C(N)=O)c(-c2ccco2)c1-c1ccco1,-0.38,0.5
O=C(NCCC(c1ccccc1)c1ccccc1)c1cccs1,-0.08,0.25
CC(=O)Nc1ccc(S(=O)(=O)N2CCN(Cc3ccccc3Cl)CC2)cc1,x,-0.95
N#CC(C#N)Sc1nc2ccccc2[nH]1,0.67,-0.9
CCOC(=O)C1CCN(c2ccccc2CN2CCN(Cc3ccccc3)CC2)CC1,0.34,2
C=CCSc1nc(N2CCOCC2)c2c(c1C#N)CC(C)(C)SC2,0.84,x
Cn1c(=O)c([N+](=O)[O-])c(N2CCN(C(c3ccccc3)c3ccccc3)CC2)c2ccccc21,-1.1,x
Cc1sc(-c2ccncc2)nc1OC(=O)c1ccc(Cl)cc1Cl,-0.1,x
Cc1ccc(N(Cc2ccco2)S(=O)c2ccc3ccccc3c2)cc1 (centres undefined),x,1.2
COc1ccc(CCNC(=O)CSCc2n[nH]c(=O)[nH]2)cc1OC,0.08,-0.9
CCOC(=O)c1sc(=S)n(-c2c(C)cccc2C)c1N,-1,x
CN(C)c1ccc(C2Nc3ccccc3S2)cc1 (centres undefined),84,0.75
CN(C)C(C#N)c1c[nH]c2ccccc12 (centres undefined),0.045,1.8
O=c1oc2ccccc2cc1-c1csc(Nc2ccc(F)cc2)n1,0.5,0.4

# In a second layout: 2 of the compounds above.
# Value order – CapD inh, AID504770
O=c1oc2ccccc2cc1-c1csc(Nc2ccc(F)cc2)n1
→ 0.5, 0.4
CN(C)C(C#N)c1c[nH]c2ccccc12 (centres undefined)
→ 0.045, 1.8

# (list continues)
SMILES,CapD inh,AID504770
O=S(=O)(NCc1csc2ccc(Cl)cc12)c1ccccc1,0.6,0.5
CCOC(=O)C1CCN(C(=O)COC(=O)c2cccnc2Nc2ccccc2F)CC1,x,-0.85
O=C1/C(=C/c2ccc(-c3ccc(Br)cc3)o2)C=C(c2ccccc2)N1c1ccc(Cl)cc1Cl,0.11,x
CC(C)(C)C(=O)COC(=O)c1cc2ccccc2cc1O,x,0.25
COC(=O)C1=C(C)OC(N)=C(C#N)C12C(=O)Nc1ccc(C)cc12 (centres undefined),x,1.1
O=C(NCC(=O)N1CCOCC1)c1ccccc1,-0.3,0.45
N=c1c(Cl)cc(C(F)(F)F)cn1O,-0.55,-0.6
CC(=O)N1N=C(c2ccc(Br)cc2)CC1c1ccccc1F (centres undefined),4.9,x
CCOC(=O)C(CC)n1c(Br)nc2c1c(=O)[nH]c(=O)n2C (centres undefined),x,0.65
O=[N+]([O-])c1ccc(S(=O)(=O)c2ccc(Cl)cc2)cc1O,-0.27,x
Cc1ccc(-c2nc(N)sc2CC(=O)OCC(=O)N2CCOCC2)cc1,x,-0.05
CCn1cc(CC(=O)O)c2ccccc21,x,-0.65
COC(=O)c1nn(-c2cccc(Cl)c2)cc(OC)c1=O,-1.9,-1.1
Nc1nc2c(ccc3[nH]c(=O)c(=O)[nH]c32)s1,x,0.8
COc1cc(C2Nc3ccc4ccccc4c3C3=C2C(=O)CC(C)(C)C3)ccc1OCc1ccc(Cl)cc1Cl (centres undefined),42,x
CCOC(=O)c1csc(-c2ccc(C(F)(F)F)cc2)n1,0.56,x
COc1ccc(NCc2nnc(SCC(=O)c3ccc(OC)cc3)n2C)cc1,x,1
Cc1cc(Cl)ccc1NC(=O)CSc1nnc(/N=C/N(C)C)s1,-0.96,-0.15
Cc1c(N=Nc2cnc(NC(=O)c3ccccc3)s2)c(=O)n(-c2ccccc2)n1C,x,0.05
N#C/C(=C/c1ccco1)c1ccc(Br)cc1,-1.7,-0.15
O=C(/C=C/c1ccc(Br)o1)OCC(=O)c1cccc(C(F)(F)F)c1,-1,-0.9
O=C(O)CSc1cccc(Cl)c1Cl,1,0
O=C(NCCSC(=O)c1ccc(Cl)cc1Cl)c1ccc(Cl)cc1Cl,-0.81,x
Cc1cccc(OC(C)C(=O)O)c1 (centres undefined),-0.005,-0.75
COc1ccccc1NC(=O)CN(Cc1ccco1)C(=O)c1ccc(-n2c(C)ccc2C)cc1,x,2
Nn1cnc2c(c1=O)C1(CCCC1)Cc1ccccc1-2,1.4,x
CN(C(=O)c1ccccc1)C1CCCCC1,0.09,0
O=C1CS(=O)(=O)C(c2ccccc2)C(=O)N1c1ccc(Cl)cc1 (centres undefined),0.075,x
